TRPV1 ag: human TRPV1 agonism; Q8NER1; TRPV1-expressing cells, Fluo-8 calcium influx, agonist mode; hit rate 0.19% among 320,000; activation, % at 8.33 µM; AID 540275; in the data active = activation above about 80%; inconclusive = between about 30% and that limit; also: 0% is about no effect
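Fluo-8 calcium influx in TRPV1-expressing cells, kinetic read (ex 480/em 520 nm). Compound added and read 3 min for agonist activity, followed by capsaicin at EC20 final and 2 min further read for enhancement.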
A-T KAP1 phos: candidate therapy for ataxia-telangiectasia. […] A-T fibroblasts, KAP-1 phosphorylation AlphaLISA; neocarzinostatin DNA damage 30 min before lysis. Potency, µM (series often up to 57.5 µM), for inactives: at the highest dose activation, usual class: activators. hit rate 0.19% among 320,000; also: potency is read from the fitted curve at half-maximal effect; % of control where 0% means no effect; nearly all actives have a fitted effect of over 45% in size
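hTERT-immortalized A-T patient fibroblasts ([…]), 500 cells/well in OPTI-MEM, 1% FBS, got compounds for 60 min, then NCS for 30 min at 37C. Lysates were then assayed for phospho-KAP-1 by AlphaLISA (anti-pKAP1 donor, anti-KAP1 acceptor beads), 6 hr at 25C.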
TCR act: activators of T cell receptors; 330,000 tested, under 10 active; Potency, µM (highest dose often 9.22 µM), for inactives: at the top dose activation of IL-2 secretion, hits mostly activators; primary human leukocytes, anti-CD3, IL-2 HTRF, 48 h; AID 504894; also: % of control where 0% means no effect
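48 hr co-incubation of compounds, a-CD3 beads and primary human leukocytes; IL-2 quantified homogeneously by HTRF with anti-IL-2 K and d2 conjugates.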
Mito fusion yeast: mitochondrial division inhibition or fusion activation | S. cerevisiae fusion-defective mutant growth rescue, CellTiterGlo 48 h | Potency, µM (top dose mostly 46.1 µM), without a hit: at the top dose growth rescue (activation), most hits filed as activators | hit rate 0.23% among 320,000 | AID 485298;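 also: potency is read from the fitted curve at half-maximal effect; % of control where 0% means no effect; nearly all actives have a fitted effect of over 45% in size; temperature-sensitive fusion mutants such as fzo1-1 at 37 °C on non-fermentable ethanol glycerol medium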
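Compounds are tested for their ability to restore growth of mitochondrial fusion-defective yeast strains at non-permissive 37C in YPEG medium over 48 hours. Viability is quantified by luciferase luminescence.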
USP2a block: blocks human ubiquitin-specific protease USP2a. Potency, µM (series often up to 38.3 µM), for inactives: at the top dose activity change, negative = inhibition, actives largely listed as inhibitors. USP2 core, Ub-CHOP2 coupled fluorogenic reporter, 485/531. hit rate 0.01% among 330,000. AID 463254. O75604;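 also: potency is read from the fitted curve at half-maximal effect; plate controls were DMSO wells for no effect and full inhibition by NEM control for full effect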
Target sequence (O75604 whole entry, looked up): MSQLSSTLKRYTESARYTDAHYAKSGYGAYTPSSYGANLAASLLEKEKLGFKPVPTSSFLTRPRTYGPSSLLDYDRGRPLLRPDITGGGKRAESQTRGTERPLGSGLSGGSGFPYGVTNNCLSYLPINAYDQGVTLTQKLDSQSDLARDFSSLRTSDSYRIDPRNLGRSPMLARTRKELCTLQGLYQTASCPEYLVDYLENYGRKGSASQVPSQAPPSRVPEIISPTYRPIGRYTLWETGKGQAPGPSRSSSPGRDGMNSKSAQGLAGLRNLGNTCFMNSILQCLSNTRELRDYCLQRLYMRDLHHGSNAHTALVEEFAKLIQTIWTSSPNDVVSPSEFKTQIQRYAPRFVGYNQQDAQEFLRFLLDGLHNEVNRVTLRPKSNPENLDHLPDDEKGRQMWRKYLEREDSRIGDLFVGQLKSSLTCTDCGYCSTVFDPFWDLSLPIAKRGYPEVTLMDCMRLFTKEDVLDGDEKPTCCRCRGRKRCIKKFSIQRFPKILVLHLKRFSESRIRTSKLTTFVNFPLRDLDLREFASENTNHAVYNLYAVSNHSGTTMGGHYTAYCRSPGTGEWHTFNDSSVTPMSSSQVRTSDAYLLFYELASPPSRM
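Deubiquitinase activity read as fluorescence (485/531 nm) after Ub-CHOP2 cleavage activates the enterokinase reporter on its substrate; USP2 core 10nM, Ub-CHOP2 and substrate 25nM each, 30min compound preincubation then 60min RT; data normalized to NEM, curves fitted.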
Numbers without * were called inactive; ? = inconclusive; nt = not tested or not shown; & = joins results of further samples; [ ] = remark or other dose. Unless noted, calls follow the shape of the dose curve; as a rule, active = well fitted curve in the direction sought with a large enough effect; inconclusive = small, poorly fitted or top-dose-only effect, or another doubt; inactive = no such curve, though single readings can be large; an effect the other way counts as inactive or inconclusive. An excerpt; rates above refer to the full screens.

nr	SMILES	TRPV1 ag	A-T KAP1 phos	TCR act	Mito fusion yeast	USP2a block
1	Cc1cc(NC(=O)CSc2nnc(C3COc4ccccc4O3)o2)no1 (stereo not drawn)	-2.9	-1.5%	-1.6%	-5.2%	4.2%
2	CC(C)(C(=O)O)c1ccc([C@H](O)CCCN2CCC(C(O)(c3ccccc3)c3ccccc3)CC2)cc1	5.7	14.2%	3.1%	4.7%	3.3%
3	COc1c2occc2cc2ccc(=O)oc12	-11.9	6.3%	4.9%	3.2%	3.3%
4	CS(=O)(=O)c1ccc([C@@H](O)[C@@H](CF)NC(=O)C(Cl)Cl)cc1	0.5	-7.7%	0.1%	2.1%	0.6%
5	O=C(N/N=C/c1ccccn1)c1cccc([N+](=O)[O-])c1	-1.2	9.3%	3.5%	0.1%	-6.4%
6	CCN(CC)CCOCCOC(=O)C1(c2ccccc2)CCCC1	nt	nt	-2.8%	-2.8%	nt
7	NCCNCCNCCN	-0.5	-1.5%	9.5%	-0.3%	1.2%
8	Cc1ccc2nc(-c3ccc(NS(=O)(=O)c4ccc(F)cc4)cc3)sc2c1	1.1	-1.5%	-3.1%[46.1 µM]	-20.2%	-13.6%
9	CCN(Cc1nc2ccccc2c(=O)[nH]1)Cc1nc2ccsc2c(=O)[nH]1	1.7	2.9%	-0.6%	-2.5%	0.7%
10	C[N+](C)(C)CCCCCCCCCC[N+](C)(C)C	-3.8	-8.1%	1.0%	?	7.0%
11	COc1cccc(N2CCN(CC(=O)Nc3ccc(-n4cnnn4)cc3)CC2)c1	2.3	-0.1%	6.2%	-13.4%	0.7%
12	O=C(CSc1nnc(-c2ccccn2)o1)Nc1ccccc1Cl	4.4	-3.6%	0.0%	-2.6%	-0.3%
13	CN1CCN(CC/C=C2/c3ccccc3Sc3ccc(S(=O)(=O)N(C)C)cc32)CC1	7.8	nt	4.5%	7.0%	3.3%
14	CCN(CC)c1ccc2cc(C(=O)O)c(=O)oc2c1	5.4	11.6%	-2.9%	3.8%	1.8%
15	CC1=NC(C)(C)Cc2ccccc21	2.4	-8.0%	1.1%	-0.7%	0.2%
16	CCOC(=O)CSc1nc(-c2ccccn2)ncc1OC	-1.8	-0.4%	-8.4%	-6.2%	-0.1%
17	c1ccc(-c2nnc3n2N=C(c2ccc4c(c2)OCO4)CS3)nc1	0.6	8.7%	0.7%	-5.8%	3.7%
18	c1ccc(CSC2=NNC(c3ccccn3)S2)cc1 (stereo not drawn)	-5.9	16.1%	-3.2%	-6.3%	1.9%
19	COc1cc(/C=N/NC(=O)c2ccccc2)ccc1OS(=O)(=O)c1ccccc1	10.4	0.6%	0.9%[46.1 µM]	-15.0%	3.1%
20	CN1C(C(=O)Nc2ccccn2)=C(O)c2sccc2S1(=O)=O	1.1	-29.4%	4.1%	?	-6.6%
21	COc1ccc2cc([C@@H](C)C(=O)O)ccc2c1	-3.9	-2.1%	-3.1%	1.9%	0.6%
22	CC(C)(C)NC(=O)[C@H]1CC[C@H]2[C@@H]3CC[C@H]4NC(=O)C=C[C@]4(C)[C@H]3CC[C@]12C	-4.9	nt	-1.5%	9.5%	0.1%
23	COc1cccc(C(=O)Nc2cc3c(cc2N2CCCC2)n(C)c(=O)n3C)c1	20.3	-4.0%	1.2%	-12.4%	-4.0%
24	O=C(N/N=C/c1ccccn1)c1cccc(S(=O)(=O)N2CCCC2)c1	4.7	0.0%	3.0%	-4.0%	9.5%
25	O=C(Nc1nnc(C2CC2)s1)c1ccccn1	10.5	-5.6%	nt	-0.2%	-0.3%

Molecules above that have an aryl thioether with sulfur outside any ring:
nr	SMILES	TRPV1 ag	A-T KAP1 phos	TCR act	Mito fusion yeast	USP2a block
1	Cc1cc(NC(=O)CSc2nnc(C3COc4ccccc4O3)o2)no1 (stereo not drawn)	-2.9	-1.5%	-1.6%	-5.2%	4.2%
12	O=C(CSc1nnc(-c2ccccn2)o1)Nc1ccccc1Cl	4.4	-3.6%	0.0%	-2.6%	-0.3%
16	CCOC(=O)CSc1nc(-c2ccccn2)ncc1OC	-1.8	-0.4%	-8.4%	-6.2%	-0.1%

Values by screen from above:
Entries 10 to 13 in Mito fusion yeast: ?, -13.4%, -2.6%, 7.0%
Entries 10 to 13 in TRPV1 ag: -3.8, 2.3, 4.4, 7.8

Later entries.
nr	SMILES	TRPV1 ag	A-T KAP1 phos	TCR act	Mito fusion yeast	USP2a block
26	NC12CC3CC(CC(C3)C1)C2	-2.4	-8.4%	3.6%	-3.1%&-6.0%	1.2%
27	O=C(O)CC(O)C(=O)O (stereo not drawn)	2.5	-4.0%	5.8%	1.0%	1.6%
28	Nc1ccn([C@@H]2O[C@H](CO)[C@@H](O)[C@@H]2O)c(=O)n1	3.3	5.1%	2.9%	2.0%	2.8%
29	CC1CCC/C(=N/Nc2ccc([N+](=O)[O-])cc2[N+](=O)[O-])C1 (stereo not drawn)	-4.9	nt	1.5%	-2.4%	-0.4%
30	COc1ccc(NC(=S)Nc2ccccc2)cn1	-1.7	-9.5%	-1.6%	-4.1%	0.5%
31	Cc1cc(NS(=O)(=O)c2ccc(N)cc2)no1	1.0	4.3%	7.5%	-0.5%	1.9%
32	Nc1ccc(C(=O)O)cc1	-2.4&-0.9	14.7%&3.9%	-3.5%&-1.4%&6.0%	-3.3%&-3.9%	1.2%&1.0%
33	CN1CCc2cccc3c2C1Cc1ccc(O)c(O)c1-3 (stereo not drawn)	3.0	-10.5%	-4.3%	16.5%&-0.4%	-0.6%
34	C/C(=N\Nc1ccc([N+](=O)[O-])cc1[N+](=O)[O-])C(C)C(C)C (stereo not drawn)	6.0	0.8%	-10.5%	-0.2%	1.9%
35	CC(C)(C)NC(=O)[C@@H]1C[C@@H]2CCCC[C@@H]2CN1C[C@@H](O)[C@H](Cc1ccccc1)NC(=O)[C@H](CC(N)=O)NC(=O)c1ccc2ccccc2n1	7.2	-6.3%	3.8%&-1.6%	-0.4%	-0.3%
36	N[C@H](CO)C(=O)O	nt	nt	nt	2.1%	nt
37	O=C(Nc1nc(-c2ccccn2)cs1)c1cccc(S(=O)(=O)N2CCOCC2)c1	-3.5	-2.1%	-7.8%	-3.8%	-1.1%
38	O=C(O)c1cccnc1Sc1ccc(Cl)cc1	-1.2	1.1%	-4.0%	-5.3%	2.6%
39	Cc1ccccc1C(=O)N/N=C/c1ccc(Sc2ccccn2)o1	0.6	-1.4%	-2.1%[46.1 µM]	0.7%	2.3%
40	C[C@H]1O[C@@H](O[C@H]2[C@@H](O)C[C@H](O[C@H]3[C@@H](O)C[C@H](O[C@H]4CC[C@@]5(C)[C@H](CC[C@@H]6[C@@H]5C[C@@H](O)[C@]5(C)[C@@H](C7=CC(=O)OC7)CC[C@]65O)C4)O[C@@H]3C)O[C@@H]2C)C[C@H](O)[C@@H]1O	8.5&-1.8	33.2%&1.2%	-19.9%	6.0%&-1.5%	2.3%&-6.6%

As entered above:
cpd 20 in A-T KAP1 phos → -29.4%
cpd 40 in TCR act → -19.9%
cpd 23 in Mito fusion yeast → -12.4%

Just TRPV1 ag and TCR act (four entries from above):
nr	structure	TRPV1 ag	TCR act
37	O=C(Nc1nc(-c2ccccn2)cs1)c1cccc(S(=O)(=O)N2CCOCC2)c1	-3.5	-7.8%
38	O=C(O)c1cccnc1Sc1ccc(Cl)cc1	-1.2	-4.0%
39	Cc1ccccc1C(=O)N/N=C/c1ccc(Sc2ccccn2)o1	0.6	-2.1%[46.1 µM]
40	C[C@H]1O[C@@H](O[C@H]2[C@@H](O)C[C@H](O[C@H]3[C@@H](O)C[C@H](O[C@H]4CC[C@@]5(C)[C@H](CC[C@@H]6[C@@H]5C[C@@H](O)[C@]5(C)[C@@H](C7=CC(=O)OC7)CC[C@]65O)C4)O[C@@H]3C)O[C@@H]2C)C[C@H](O)[C@@H]1O	8.5&-1.8	-19.9%
